From PubChem
Cruzain noTriton = qHTS Assay for Promiscuous and Specific Inhibitors of Cruzain (without detergent). Cruzipain (Trypanosoma cruzi), P25779. purified cruzain, Z-FR-AMC fluorescence, no detergent. Potency, µM, for inactives: max response, negative = inhibition, most hits filed as inhibitors. hit rate 2.3% among 200,000;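 further: plate controls were enzyme without inhibitor for no effect and buffer without enzyme for full effect; nearly all actives have a fitted effect of over 40% in size; top concentration of the series not given in the record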
Target sequence (P25779 123-467 limits assumed): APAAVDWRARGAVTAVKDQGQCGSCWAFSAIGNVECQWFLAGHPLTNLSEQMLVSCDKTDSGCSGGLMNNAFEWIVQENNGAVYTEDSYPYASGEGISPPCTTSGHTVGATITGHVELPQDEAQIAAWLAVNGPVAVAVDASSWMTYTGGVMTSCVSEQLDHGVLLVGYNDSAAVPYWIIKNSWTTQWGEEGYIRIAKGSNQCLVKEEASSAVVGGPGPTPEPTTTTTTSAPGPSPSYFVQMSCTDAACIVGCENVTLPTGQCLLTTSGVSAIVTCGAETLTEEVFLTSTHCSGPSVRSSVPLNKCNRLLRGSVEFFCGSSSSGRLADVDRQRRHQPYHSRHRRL
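Purified cruzain at 1.5 nM, pre-incubated 15 min with compound at room temperature in 100 mM sodium acetate pH 5.5, 5 mM DTT, 0.00005% Triton X-100. Reaction started with 2 uM Z-FR-AMC; AMC fluorescence increase over 60 s gives rate.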
Cruzain Triton = qHTS Assay for Promiscuous and Specific Inhibitors of Cruzain (with detergent) | Potency, µM, for inactives: max response, negative = inhibition, actives largely listed as inhibitors | purified cruzain, Z-FR-AMC fluorescence, 0.01% Triton | Cruzipain (Trypanosoma cruzi), P25779 | hit rate 0.43% among 200,000;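 further: plate controls were neutral wells for no effect and buffer without enzyme for full effect; nearly all actives have a fitted effect of over 40% in size; top concentration of the series not given in the record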
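Sodium acetate buffer (100 mM, pH 5.5) containing 5 mM DTT and 0.01% Triton X-100 hosted 1.5 nM cruzain and test compound for 15 min at room temperature. Cleavage of 2 uM Z-FR-AMC was then tracked by fluorescence.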
NS1 function inh = qHTS Assay for Inhibitors of Influenza NS1 Protein Function; S. cerevisiae slowed by influenza A NS1, growth recovery by OD600; Potency, µM (series often up to 46.1 µM), for inactives: top-dose activity, positive = more growth; hit rate 0.4% among 270,000; active means well fitted rising curve with a large enough effect; inconclusive means small, poorly fitted or top-dose-only effect; inactive means no such curve, though single readings can be large or run the other way; further: nearly all actives have a fitted effect of over 50% in size
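Compounds were scored for reversing the slow growth caused by influenza A NS1 in S. cerevisiae, measured by optical density at 600 nm. Assay medium contained 2% galactose at pH 6.0; NS1-free yeast of the same strain were the positive control.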
Numbers without * were called inactive; ? = inconclusive; nt = not tested or not shown. Unless noted, the call rests on the fitted dose curve; in most records, active means well fitted curve in the direction sought with a large enough effect; inconclusive means small, poorly fitted or top-dose-only effect, or another doubt; inactive means no such curve, though single readings can be large; an effect the other way counts as inactive or inconclusive. Potency means the concentration at half of the fitted maximal effect. Not all compounds are listed. The share of hits here may be higher or lower than overall.

Order of results – NS1 function inh | Cruzain Triton | Cruzain noTriton
Cc1ccc2c(c1)cc(CN(Cc1ccccc1)C(=O)N(C)C)c1nnnn12
 : -3% | nt | nt
C=CCOc1cccc(C2/C(=C(/O)c3ccccc3)C(=O)C(=O)N2CCCN2CCOCC2)c1 (stereo not drawn)
 : 1% | nt | nt
Cc1ccc2nc(NC3=NCN(CCN4CCOCC4)CN3)nc(C)c2c1
 : 2% | nt | nt
Cc1ccc(C2/C(=C(\O)c3c(C)nc4ccccn34)C(=O)C(=O)N2CCCN(C)C)o1 (stereo not drawn)
 : 7% | nt | nt
CCc1ccc2nc(NC3=NCN(CCOC)CN3)nc(C)c2c1
 : 7% | nt | nt
CSc1ccccc1OCc1cc(C(=O)N2CCC(Oc3cccnc3)CC2)no1
 : -58% | nt | nt
COc1ccc(OC)c(S(=O)(=O)n2ccnc2)c1
 : 2% | nt | nt
Cn1nc(-c2ccc(Cl)cc2)c2cc(C(=O)N3CCC(N4CCCCC4)CC3)sc21
 : -11% | nt | nt
COc1ccccc1-c1cc(C(=O)N2CCc3ccccc3C2)no1
 : -84% | nt | nt
COc1ccc(N2CCN(CCNC(=O)c3cccn4c(=O)c5ccc(Cl)cc5nc34)CC2)cc1
 : 15% | nt | nt
O=C1NC2CCCCC2NC1CC(=O)N1CCN(c2ccccc2)CC1 (stereo not drawn)
 : 12% | nt | nt
O=C(O)Cn1nc(-c2ccccc2)c2ccccc21
 : -91% | nt | nt
CCOC(=O)N1CCN(C(=O)C2CCC(C(=O)N3CCN(C(=O)OCC)CC3)CC2)CC1 (stereo not drawn)
 : 8% | nt | nt
COc1ccc(-c2c3c(=O)n(C)c(=O)n(C)c3c3nnc4ccccc4n23)cc1
 : -2% | nt | nt
CC(C)Oc1ccc(/C(O)=C2/C(=O)C(=O)N(CCCN3CCOCC3)C2c2ccncc2)cc1 (stereo not drawn)
 : 15% | nt | nt
N#Cc1cc2c(=O)n3ccccc3nc2n(Cc2cccnc2)c1=N
 : -4% | nt | nt
COc1ccc(-c2cc(C(F)(F)F)nc(N3CCN(c4ccccc4)CC3)n2)cc1OC
 : 12% | nt | nt
Cc1cc(C)n(CCc2nc3c4ccccc4nc(SCc4ccc(C#N)cc4)n3n2)n1
 : 2% | nt | nt
Cc1c2c(n3c(nc4ccccc43)c1C#N)N(Cc1cccnc1)CC2
 : 9% | nt | nt
Cc1ccc2cc(CN(CC3CCCO3)C(=O)c3ccco3)c(=O)[nH]c2c1C (stereo not drawn)
 : 9% | nt | nt
O=C(O)C(NS(=O)(=O)c1cccc2cccnc12)c1ccccc1 (stereo not drawn)
 : ? | nt | nt
c1ccc(CC2CCN(c3nc(N4CCOCC4)nc(N4CCOCC4)n3)CC2)cc1
 : -39% | nt | nt
COc1cc2c(cc1OC)C(=NCCC(=O)O)NC(C)(C)C2
 : -3% | nt | nt
COc1cc(-c2nnc3sc(-c4cccnc4)nn23)cc(OC)c1OC
 : -41% | nt | nt
O=C(CCCn1c(SCC(=O)NC2CCCC2)nc2ccccc2c1=O)NCC1CCCO1 (stereo not drawn)
 : -19% | nt | nt
Cc1nnc(NC(=O)c2csc3c2CCCC3)s1
 : -7% | nt | nt
Cc1cc(C)cc(-n2cc3c(=O)n(C)c(=O)n(C)c3c2)c1
 : -8% | nt | nt
CCN1CCN(c2ccc(-n3c(C)nc4c(cnn4-c4ccccc4Cl)c3=O)cc2)CC1
 : -5% | nt | nt
Cc1sc2nc3c(C(=O)N4CCN(c5ncccn5)CC4)cccn3c(=O)c2c1C
 : 0% | nt | nt
COc1cc(OC)cc(-c2cc3nc4c(c(N5CCN(c6cnccn6)CC5)n3n2)CCCC4)c1
 : -4% | nt | nt
CCOC(=O)N1CCc2c(sc3c2C(=O)NC(c2ccc(-c4ccc(Cl)cc4)o2)N3)C1 (stereo not drawn)
 : -2% | nt | nt
COc1nc(N2CCCC2)nc(-n2cc(-c3ccccc3)nn2)n1
 : -8% | nt | nt
CC1CCN(CCNC(=O)c2ccc3c(=O)n(CCc4ccccc4)c(=O)[nH]c3c2)CC1
 : 4% | nt | nt
Cc1cc(=O)n2nc(N3CCC(C(=O)NCCC4=CCCCC4)CC3)sc2n1
 : 4% | nt | nt
CCOc1cc(-c2nc(-c3cc(OC)c(OC)c(OC)c3)no2)cc(OCC)c1OCC
 : 2% | nt | nt
Cc1cnc(-c2nnc(N(C)C(=O)c3ccncc3)s2)cn1
 : 3% | nt | nt
CCC(Sc1nc(=O)cc(N)n1-c1ccccc1)C(=O)Nc1ccc(Cl)cn1 (stereo not drawn)
 : -1% | nt | nt
Cc1ccc(C2/C(=C(\O)c3c(C)nc4ccccn34)C(=O)C(=O)N2CCCN2CCOCC2)o1 (stereo not drawn)
 : 21% | nt | nt
O=C(Nc1cnn(Cc2ccc(F)cc2)c1)c1cc(-c2ccc(Br)cc2)on1
 : -10% | nt | nt
Cc1cc(C)nc(NC2=NCCN2C(=O)Nc2ccc(Cl)c(Cl)c2)n1
 : -38% | nt | nt

Single values from the entries so far.
Under NS1 function inh, `Cc1cnc(-c2nnc(N(C)C(=O)c3ccncc3)s2)cn1` is entered as 3%
Under NS1 function inh, `Cc1nnc(NC(=O)c2csc3c2CCCC3)s1` is entered as -7%
Under NS1 function inh, `Cc1cc(C)cc(-n2cc3c(=O)n(C)c(=O)n(C)c3c2)c1` is entered as -8%

Additional structures follow:
Order of results – NS1 function inh | Cruzain Triton | Cruzain noTriton
O=C(O)Cn1c(=O)oc2cc(S(=O)(=O)NC3CCCCC3)ccc21
 : 1% | nt | nt
CCOC(=O)c1sc(NC(=O)CCn2nnc3ccccc32)c(C(=O)OCC)c1C
 : -39% | nt | nt
COCCOC(=O)C1=C(C)N=C2SCCC(=O)N2C1c1cc(Br)ccc1OC (stereo not drawn)
 : -15% | nt | nt
O=C1C(=O)N(CCCN2CCOCC2)C(c2ccccn2)/C1=C(\O)c1ccc2c(c1)OCCO2 (stereo not drawn)
 : 7% | nt | nt
Cc1cc2nc(NC3=NCN(CCCN4CCOCC4)CN3)nc(C)c2cc1C
 : -5% | nt | nt
O=C1c2ccccc2C(=O)N1Cc1nc(-c2cccnc2)no1
 : 0% | nt | nt
Fc1ccc(-c2nnc3sc(-c4ccc5c(c4)OCO5)nn23)cc1
 : 17% | nt | nt
COc1ccc2c3c(cccc13)NN=C2C
 : -46% | nt | nt
COc1ccc(C)cc1NS(=O)(=O)c1cccc2cccnc12
 : -13% | nt | nt
CCOc1cc2[nH]c(=O)n(CC3CCC(C(=O)NC4CCCCC4)CC3)c(=O)c2cc1OCC (stereo not drawn)
 : 2% | nt | nt
O=S(=O)(c1ccc(F)cc1)N1CCC(N2CCN(c3ccccc3)CC2)CC1
 : 0% | nt | nt
O=C1CC(N2CCC(c3nc4ccccc4o3)CC2)C(=O)N1c1ccc(Cl)cc1 (stereo not drawn)
 : 3% | nt | nt
Cc1cc(=O)[nH]c(/N=C(/NC(=O)c2ccccc2)Nc2ccc3c(c2)OCCO3)n1
 : -18% | nt | nt
Brc1ccc2c(c1)c1nc3ccccc3nc1n2CCN1CCOCC1
 : 1% | nt | nt
COc1ccc2c(C)nc(Nc3nc(C)cc(=O)[nH]3)nc2c1
 : -52% | nt | nt
Cc1ccc2oc(=O)c3cc(C(=O)N4CCN(c5ncccn5)CC4)sc3c2c1
 : -13% | nt | nt
Cn1c(=O)n(CCc2ccccc2)c(=O)c2c1nc1n2CCN1c1ccccc1
 : 27% | nt | nt
Cc1nnc(SCc2cc(=O)[nH]c(Nc3nc(C)c4ccccc4n3)n2)s1
 : -8% | nt | nt
Cc1cccn2c(=O)c3cc(C(=O)N4CCc5ccccc54)n(C)c3nc12
 : -8% | nt | nt
CN1CCc2c(sc3c2c(=O)n(-c2ccccc2)c2nnc(SCc4ccccc4F)n32)C1
 : ? | nt | nt

Reprinted from the part before: 2 entries, then new ones.
Order of results – NS1 function inh | Cruzain Triton | Cruzain noTriton
Cc1cccn2c(=O)c3cc(C(=O)N4CCc5ccccc54)n(C)c3nc12
 : -8% | nt | nt
CN1CCc2c(sc3c2c(=O)n(-c2ccccc2)c2nnc(SCc4ccccc4F)n32)C1
 : ? | nt | nt
Cc1c(N=c2c(=O)c3ccccc3c2=O)c(=O)n(-c2ccccc2)n1C
 : 10% | nt | nt
COc1ccc(-c2onc3ccc(Cl)cc23)cc1OC
 : 10% | nt | nt
Cc1ccnc(SCCn2c(N3CCOCC3)nc3c2c(=O)n(C)c(=O)n3C)n1
 : 9% | nt | nt
Cn1cc(C(=O)NCCN2CCN(c3ccccc3F)CC2)c2c3ccccc3n(C)c2c1=O
 : -19% | nt | nt
COC(=O)C1=C(NC(=O)c2cccc(C)c2)CCS1
 : -10% | nt | nt
CCOC(=O)c1c(NC(=O)c2cc(C3CC3)on2)sc(C(C)=O)c1C
 : 1% | nt | nt
C=C1c2ccccc2O[C@H](C(=O)OCC)[C@@H]1CCC(C)C (tested in a mixture with another compound)
 : nt | -2.2% | 7%
C=C1CC[C@H](O)C/C1=C/C=C1\CCC[C@]2(C)[C@@H]([C@H](C)CCCC(C)(C)O)CC[C@@H]12
 : nt | 3.0% | -4%
CCOC(=O)CC(SP(=O)(OC)OC)C(=O)OCC (stereo not drawn)
 : nt | 6.9% | 4%
COC(=O)[C@@H]1CCCN1C(=O)[C@H]1C[C@@H]1[C@H](NC(=O)OCc1ccccc1)c1ccccc1
 : nt | -0.2% | 15%
COc1cc2c(cc1OC)[C@H](C)NCC2
 : nt | -3.1% | -12%
COc1ccc2c(c1)[C@@]1(C)CCC[C@](C)(CO)C1CC2 (stereo partly drawn)
 : nt | -0.3% | -2%
Cc1nc(NC2CCCCC2)c2nc(-c3ccccc3)n(CCN3CCCCC3)c2n1
 : nt | 0.6% | 1%
C1CCCNCC1
 : nt | 11% | -9%
COC(=O)Cn1c(C(=O)N(C)C)cc2c1C[C@H]1CN(C(=O)c3ccccc3)[C@@](Cc3ccc(OC)cc3)(C(=O)OC)[C@@H]21
 : nt | -0.5% | ?
NC[C@@H]1O[C@H](O[C@@H]2[C@H](O[C@@H]3O[C@H](CO)[C@@H](O)[C@@H]3O)[C@@H](O)[C@@H](N)C[C@H]2N)[C@@H](N)[C@H](O)[C@@H]1O
 : nt | 1.1% | -6%
NC(=S)NNC(N)=S
 : nt | 2.1% | 5%
CC(C)C[C@@H](CC(=O)N[C@H](CC(=O)N[C@@H]1CCCC[C@H]1C(=O)N[C@H](CC(=O)N[C@@H](CCC(=O)O)CC(=O)O)CC(C)C)C(C)C)NC(=O)[C@@H]1CNCC[C@H]1N
 : nt | -1.2% | 11%
COC(=O)C1CC1C(NC(=O)[C@@H]1CCCN1)c1ccccc1 (stereo partly drawn)
 : nt | -5.1% | -9%
COc1cc(/C=C/c2ccccc2)oc(=O)c1
 : nt | 6.0% | 17%

Six records picked at random from the list so far, as already listed:
Order of results – NS1 function inh | Cruzain Triton | Cruzain noTriton
COc1ccc(-c2onc3ccc(Cl)cc23)cc1OC
 : 10% | nt | nt
Cc1nc(NC2CCCCC2)c2nc(-c3ccccc3)n(CCN3CCCCC3)c2n1
 : nt | 0.6% | 1%
COc1cc2c(cc1OC)[C@H](C)NCC2
 : nt | -3.1% | -12%
NC[C@@H]1O[C@H](O[C@@H]2[C@H](O[C@@H]3O[C@H](CO)[C@@H](O)[C@@H]3O)[C@@H](O)[C@@H](N)C[C@H]2N)[C@@H](N)[C@H](O)[C@@H]1O
 : nt | 1.1% | -6%
COc1cc(/C=C/c2ccccc2)oc(=O)c1
 : nt | 6.0% | 17%
NC(=S)NNC(N)=S
 : nt | 2.1% | 5%

(further entries)
Order of results – NS1 function inh | Cruzain Triton | Cruzain noTriton
COc1ccc(N)c(OC)c1
 : nt | -1.8% | 8%
N#CC1(O)CCCCC1
 : nt | -1.5% | 3%
CC(C)[C@@H](CC(=O)N[C@@H]1CCNC[C@H]1C(=O)N[C@H](CC(=O)N[C@@H](CCC(=O)O)CC(=O)O)Cc1c[nH]c2ccccc12)NC(=O)C[C@H](Cc1c[nH]c2ccccc12)NC(=O)[C@@H]1CCCC[C@H]1N
 : nt | -1.0% | 0%
CCOC(=O)C1C(C(=O)OC)=C(CC(C)C)c2ccccc2N1S(=O)(=O)C(F)(F)F (stereo not drawn)
 : nt | -2.6% | -2%
COC(=O)[C@@]1(Cc2ccc(OC)cc2)[C@H]2c3cc(C(=O)N(C)C)n(CCN4CNCC4=O)c3C[C@H]2CN1C(=O)c1ccccc1
 : nt | -7.8% | ?
O=Cc1ccc(Cl)cc1Cl
 : nt | -2.1% | -9%
